High-throughput results (PubChem)
Bfl-1 A1 inh: caspase 3/7 activation in MEF A1-2A-BIM cells, primary screen, A1 inhibitor project, cell-based, luminescence, HTS; Caspase-Glo 3/7 luminescence, 3 h; percent of clofoctol response, vehicle zero; caspase activation, % (test concentration not listed); actives 0.066% (n = 330,000); AID 2462, 2010;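 active means over half of replicate activation scores above 10%, or exactly half above 10 with the replicate mean above 10; inconclusive means replicate mean below 10 yet half the replicates above 10; inactive means over half of replicates below 10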;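 further: wells of about 30 µL received 50 nL stock; many hits fall short of the cut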
UCH37 inh: inhibitors of human UCH37 deubiquitinase, primary screen, biochemical, Ub-AMC cleavage, fluorescence; Ubiquitin carboxyl-terminal hydrolase isozyme L5 (Homo sapiens), Q9Y5K5; purified proteasome/UCH37; inhibition, % (concentration not given with the values); actives 0.33% (n = 330,000); AID 588478, 2011;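 active means mean of two replicates above 20%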;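 further: 0% = compound-free wells with enzyme and 100% = wells lacking proteasome; stock transfer was 100 nL into about 20 µL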
Target sequence (Q9Y5K5 whole entry, looked up): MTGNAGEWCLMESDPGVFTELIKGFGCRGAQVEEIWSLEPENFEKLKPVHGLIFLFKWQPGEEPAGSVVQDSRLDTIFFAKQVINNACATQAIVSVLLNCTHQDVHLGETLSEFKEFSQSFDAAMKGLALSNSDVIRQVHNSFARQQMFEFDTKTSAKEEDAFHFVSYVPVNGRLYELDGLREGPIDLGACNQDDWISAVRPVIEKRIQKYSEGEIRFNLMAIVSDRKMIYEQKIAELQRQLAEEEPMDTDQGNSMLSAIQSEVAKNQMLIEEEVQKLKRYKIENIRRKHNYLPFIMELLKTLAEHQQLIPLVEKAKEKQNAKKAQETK
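Material: Human UCH37 enzyme supplied as purified proteasome complex | Schedule: 30 min compound-proteasome preincubation then 25 min substrate reaction, room temperature | Detection: AMC fluorescence from Ub-AMC cleavage, excitation 355 nm, emission 460 nm | Benchmarks: Wells without proteasome as full block, compound-free enzyme plus substrate as uninhibited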
Beta2AR agonist: beta2AR agonists driving receptor internalization, primary screen, cell-based, FAP fluorogen, flow cytometry | Am2.2-beta2AR cells; reference of the scale not given here | response, % (concentration not given with the values) | AID 504454, 2011 | actives 0.43% (n = 340,000) | Beta-2 adrenergic receptor (Homo sapiens), P07550;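 active means response above a set limit, near 3 SD of response in nonfluorescent compounds, cut at about 42% in these data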;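 further: stock transfer was 100 nL into about 11 µL; a reference agonist was the positive control; negative values mostly stem from fluorescent compounds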
Target sequence (P07550 whole entry, looked up): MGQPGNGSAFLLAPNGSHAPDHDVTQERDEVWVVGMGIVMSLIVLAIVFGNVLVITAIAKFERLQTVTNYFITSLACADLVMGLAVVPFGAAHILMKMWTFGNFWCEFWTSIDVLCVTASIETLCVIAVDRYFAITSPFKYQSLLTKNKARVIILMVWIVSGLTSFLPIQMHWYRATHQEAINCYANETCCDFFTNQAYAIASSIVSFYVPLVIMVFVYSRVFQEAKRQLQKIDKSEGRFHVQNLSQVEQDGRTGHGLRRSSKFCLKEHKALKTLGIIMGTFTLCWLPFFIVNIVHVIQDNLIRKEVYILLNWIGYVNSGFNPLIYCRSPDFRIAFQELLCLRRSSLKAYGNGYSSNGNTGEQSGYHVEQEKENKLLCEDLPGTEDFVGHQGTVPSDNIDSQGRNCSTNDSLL
T cruzi inh: inhibitors of intracellular T. cruzi growth, primary screen, luminescence, NIH3T3 host cells. T. cruzi beta-gal in NIH3T3, 90 h. inhibition, % (no concentration beside the values). actives 1.4% (n = 300,000);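 active means mean inhibition across valid replicates above about 55%, limit read from the data; inconclusive means mean below that limit but half or more replicates reach it; inactive means mean below it, under half of replicates reach it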;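 further: signal also drops with host cell toxicity which is not excluded here; 0% = plate median of DMSO wells and 100% = zero luminescence signal; higher percent means less beta-gal luminescence so fewer parasites; stock transfer was 50 nL into about 50 µL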
RanGTP-Imp inh: inhibitors of RanGTP-importin-beta interaction, primary screen, biochemical, FRET, CFP-Ran, YFP-importin-beta, homogeneous | actives 1.1% (n = 300,000) | inhibition, % (concentration not given with the values) | Ran GTPase (GTP-bound) - importin-beta complex | AID 2216, 2009 | cell-free CFP-Ran/YFP-importin-beta FRET ratio;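 active means most replicates above 15%; inconclusive means exactly half above 15%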;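 further: 0% = DMSO wells and 100% = Ran loaded with GDP instead of GTP; wells of about 40 µL received 100 nL stock; the first replicate is given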
Calb FLC: C. albicans growth inhibition with fluconazole, primary screen, CaCi-2 strain, Alamar Blue fluorescence; growth inhibition, % (concentration not given with the values); C. albicans CaCi-2 (fluconazole-resistant clinical isolate) + fluconazole, 48 h; actives 0.57% (n = 300,000);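 active means most replicates above 75%; inconclusive means exactly half above 75%; inactive means most below 75%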;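 further: all wells also contain fluconazole at 8 µg/ml as a sub-toxic cotreatment; 0% = median of DMSO wells and 100% = median of geldanamycin control wells; wells of about 8 µL received 7.5 nL stock; the first replicate is given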
LANA-H2B inh: blockers of LANA interaction with H2A/H2B – biochemical, FP readout, HTS, primary screen | cell-free LANA-H2A/H2B peptide, fluorescence polarization | AID 2629, 2010 | actives 0.6% (n = 320,000) | inhibition, % (test concentration not listed) | Protein LANA1 (Human herpesvirus 8 type P (isolate GK18)), Q9QR71; in the data active means inhibition mostly above about 10%, no sharp cut-off; inactive means mostly below about 6.7%;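 further: stock transfer was 7.5 nL into about 10 µL; 0% = median of vehicle wells and 100% = median of positive control wells; one replicate is shown; the record names a cut of 25% in any replicate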
Beta cell apopt: inhibitors of cytokine-induced beta cell apoptosis, primary screen, luminescence; INS-1E cytokine-induced death, ATP luminescence, 48 h; percent of positive-control rescue, neutral wells zero; AID 435005, 2010; actives 0.8% (n = 300,000); protection from apoptosis, % (concentration not given with the values);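 active means all replicates at 75% or more, or half of them and the mean; inconclusive means half reach 75% but not the mean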;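 further: 0% = cytokine-treated negative control wells and 100% = positive control rescue; higher means more ATP so stronger rescue from cytokine killing; wells of about 40 µL received 100 nL stock; the first replicate is given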
Active calls of the source: *; ? = inconclusive; . = no result given.

SMILES | Bfl-1 A1 inh | UCH37 inh | Beta2AR agonist | T cruzi inh | RanGTP-Imp inh | Calb FLC | LANA-H2B inh | Beta cell apopt
COc1ccc(NC(=O)c2ccc3c(c2)C(=O)N(Cc2ccncc2)C3=O)cc1S(N)(=O)=O | 1.6 | 1.5 | 5.1 | . | . | . | 6.0 | -5.8
COC(=O)c1ccc(NC(=O)C2CC3CCC2C3)cc1 (stereo unspecified) | 0.5 | 4.2 | 3.8 | -17.2 | 5.6 | 0.4 | 5.1 | -10.5
Cc1cccc(-c2noc(CN(C(=O)c3ccc4c(c3)OCO4)C(C)C)n2)c1 | 0.2 | 1.6 | -12.3 | 15.8 | 5.2 | -20.9 | 2.0 | 0.9
O=c1c2ccccc2c(C=NC2CCS(=O)(=O)C2)c(O)n1-c1ccccc1 (stereo unspecified) | 0.1 | 10.5 | -20.8 | -3.6 | -0.8 | ? | 1.8 | 0.7
CCCCN(C(=O)CC1OC(=O)c2ccccc21)c1c(N)n(CCCC)c(=O)[nH]c1=O (stereo unspecified) | 1.2 | -2.8 | -3.3 | -3.9 | 0.5 | -5.0 | 6.7 | -12.1
Cc1ccc(C)c(OC(C)C(=O)Nc2ccc(S(=O)(=O)Nc3nccs3)cc2)c1 (stereo unspecified) | 0.2 | 2.6 | 10.1 | -2.7 | 2.3 | 23.2 | 10.1 | -2.6
Cc1cccc(NC(=S)NC(C)CCc2ccccc2)c1 (stereo unspecified) | -0.3 | 2.7 | -1.8 | 5.0 | -4.5 | -20.8 | 0.2 | .
CC1CC(=O)NN=C1c1ccc(N)c([N+](=O)[O-])c1 (stereo unspecified) | -0.2 | 5.2 | -11.4 | -6.4 | 1.4 | 0.5 | 0.7 | -1.0
COC(=O)/C(C#N)=C/c1c(N2CCN(c3ccccc3)CC2)nc2ccccn2c1=O | 0.7 | 0.0 | 8.2 | 14.7 | -7.5 | -0.4 | -3.0 | -0.1
Clc1ccc(-c2nc3ccncc3[nH]2)cc1 | 0.0 | 4.8 | 3.8 | 2.3 | ? | -14.0 | -1.6 | 35.3
C[C@H](NC(=O)c1ccccc1Cl)C(=O)OCCOc1ccc(Cl)cc1 | 1.5 | 1.2 | -2.9 | 3.7 | 2.3 | -4.3 | 2.9 | -0.5
CCCCCCCCN1[C@@H](CC(=O)O)c2cc(F)ccc2S1(=O)=O | -1.0 | 1.3 | 5.5 | -9.7 | 0.8 | -1.6 | -0.2 | -7.9
CC(=O)Oc1ccc2c(c1)C(=O)c1ccccc1CO2 | 1.7 | -3.3 | -3.7 | -9.2 | 4.3 | 9.7 | -0.7 | -0.2
COC(=O)C1=CO[C@@H](O[C@@H]2OC(CO)[C@@H](O)[C@@H](O)[C@@H]2O)C2C1CC[C@]2(C)O (stereo partly specified) | 1.4 | 7.1 | 7.7 | -17.5 | 5.1 | -12.8 | 3.8 | -5.1
CN1C(=O)NC(NC(=O)c2ccco2)(C(F)(F)F)C1=O (stereo unspecified) | 0.8 | 0.9 | -7.5 | 13.3 | -1.6 | 3.5 | 1.8 | -2.4
COCCn1c(SCc2nnc(-c3ccc(OC)c(OC)c3)o2)nnc1-c1ccncc1 | 0.5 | 3.0 | -0.9 | 1.1 | 2.0 | -1.1 | 3.5 | -2.7
COc1cccc(-c2noc(C3CCCN(C(=O)c4ccc(F)cc4F)C3)n2)c1 (stereo unspecified) | -0.8 | 0.2 | 1.1 | -4.0 | -2.3 | 0.2 | 0.5 | .
CCN(CC)c1ccc(NC(=O)c2ccccc2F)cc1 | -5.9 | 3.6 | 0.6 | -21.1 | -0.3 | 1.7 | -5.6 | 8.0
COc1cc(Br)c(-c2sc(Nc3ccccc3)n[n+]2-c2ccc(F)cc2)cc1OC | 0.3 | 2.7 | 2.7 | -8.6 | -0.2 | -11.2 | 3.7 | 8.0
O=C(CCc1nc2ccccc2c(=O)[nH]1)NCCN1C(=O)S/C(=C\c2ccccc2Cl)C1=O | 1.4 | -0.9 | 3.4 | -3.5 | -2.7 | 5.3 | 4.4 | 4.9
CSc1nnc(Cc2ccc3c(c2)OCO3)o1 | -1.1 | 3.2 | -1.0 | -9.0 | -4.6 | -18.5 | 1.6 | -4.8
CCSc1nnc(NC(=O)c2cccc(S(=O)(=O)N(C)c3ccc(C)cc3)c2)s1 | 0.9 | -28.2 | -1.4 | 5.4 | 10.4 | 3.7 | 2.5 | 6.1
NC(=O)c1nsc(C(=O)N(c2ccc3c(c2)OCO3)C(C(=O)NCC2CCCO2)c2ccc(F)cc2)c1N (stereo unspecified) | -0.3 | -16.1 | 5.8 | 6.5 | 1.9 | 23.9 | 2.8 | -3.3
CCNc1ccc(C(=O)OCC)cc1NC(=O)c1cccc(N(C)C)c1 | 0.4 | 0.4 | 9.9 | -79.6 | 4.2 | 58.0 | -2.8 | .

As entered above:
In Bfl-1 A1 inh, COC(=O)C1=CO[C@@H](O[C@@H]2OC(CO)[C@@H](O)[C@@H](O)[C@@H]2O)C2C1CC[C@]2(C)O (stereo partly specified) has 1.4
In Bfl-1 A1 inh, CN1C(=O)NC(NC(=O)c2ccco2)(C(F)(F)F)C1=O (stereo unspecified) has 0.8

Remaining list, next part.
SMILES | Bfl-1 A1 inh | UCH37 inh | Beta2AR agonist | T cruzi inh | RanGTP-Imp inh | Calb FLC | LANA-H2B inh | Beta cell apopt
COc1ccc(NC(=O)c2cc3c(CO)cnc(C)c3oc2=Nc2cc(OC)cc(OC)c2)cc1 | 0.3 | 0.7 | -4.3 | -2.0 | 0.8 | 0.2 | -1.5 | -4.5
CCCCC(O)(CCCC)C(=O)NN(C(=O)OCC)c1ccccc1 | 0.5 | 2.8 | -1.5 | -20.4 | -2.7 | -6.6 | -0.9 | -4.7
O=C(COC(=O)c1ccc(Br)cc1)NCC1CCCO1 (stereo unspecified) | 0.0 | 2.2 | -2.4 | . | . | . | 0.7 | -0.9
CCOP(=O)(O)c1cccc(OCCOCCOc2cccc(P(=O)(O)OCC)c2)c1 | 0.4 | 1.6 | 10.4 | 9.4 | 2.1 | 7.1 | -1.8 | -5.9
CC(C)(C)C1c2[nH]c3ccccc3c2CCN1Cc1cccc(OCCO)c1 (stereo unspecified) | -0.3 | -16.7 | -1.6 | 6.6 | 0.1 | -2.9 | 4.0 | .
C=CCN1c2ccccc2[C@]23C[C@@H](C(=O)OC)N(C(=O)c4cccs4)C2=NC(C(=O)OC)=C(C(=O)OC)[C@H]13 | 0.0 | 4.3 | 13.2 | 9.9 | 1.0 | -14.9 | -0.1 | -10.0
CCCCC(=O)N(c1ccc(OCC)cc1)C1C=CS(=O)(=O)C1 (stereo unspecified) | 0.2 | 1.5 | 3.0 | -9.4 | 0.7 | -0.4 | 1.6 | -2.3
CC(=O)Nc1ccc(S(=O)(=O)Nc2ccc(=O)n(Cc3ccc(Cl)c(Cl)c3)c2)cc1 | 0.3 | 1.2 | -13.7 | -44.4 | 1.9 | -2.9 | -5.8 | -4.7
CCN(CC(=O)Nc1c(F)cccc1F)C(=O)C1CC(=O)N(c2ccc3c(c2)OCCO3)C1 (stereo unspecified) | -1.3 | -1.0 | 1.2 | -0.8 | -0.8 | -6.5 | -1.3 | -2.6
Cc1ccc(F)cc1NC(=O)C1CCCN(c2ncccn2)C1 (stereo unspecified) | -0.1 | -0.4 | 1.8 | -16.6 | -5.2 | 22.9 | -1.0 | -1.1
CC1=C(C(=O)OCc2ccccc2)C(c2cccs2)N2C(=O)CCSC2=N1 (stereo unspecified) | 1.4 | 5.6 | -4.9 | 8.1 | 0.4 | 39.7 | 10.7 | .
COC(=O)c1ccc(Nc2nc(N3CCOCC3)nc(N3CCOCC3)n2)cc1 | -1.4 | 2.5 | 8.9 | 22.5 | 2.4 | -1.2 | 4.7 | -1.2
CSc1ccc(NC(N)=S)cc1 | 0.2 | 3.5 | 6.4 | 0.5 | ? | 6.8 | -3.5 | -2.2
CCOC(=O)c1ccc(NC(=S)NNC(=O)C2(C)CC2(Cl)Cl)cc1 (stereo unspecified) | 1.0 | -1.9 | 7.2 | 0.4 | -2.8 | 0.6 | -0.3 | 9.5
COC(=O)c1ccc(N2NC(=O)/C(=C/c3cc(OC)c(O)c(OC)c3)C2=O)cc1 | 0.2 | 6.3 | -18.0 | -2.4 | -3.9 | -16.6 | -2.6 | 1.0
O=C1NC(=S)S/C1=C\c1cc2ccccc2nc1N1CCCCC1 | -0.3 | 7.6 | 9.1 | -25.5 | -21.7 | 8.9 | -2.6 | 19.5
CCN(CC)c1ccc(CNc2nc3ccccc3n2C)cc1 | -1.8 | 1.9 | 1.6 | -1.5 | 6.3 | -5.3 | -0.9 | 7.6
CN(C)CCNC(=O)/C(=C/c1ccc(-c2ccc(Cl)cc2)o1)NC(=O)c1ccccc1 | 0.3 | -12.3 | 8.5 | 25.5 | 1.8 | -13.3 | 1.4 | 0.0
COc1cc(/C=N/OCC(=O)NC2CCCCC2)ccc1OCc1ccccc1 | -0.3 | . | -6.7 | -9.3 | -0.2 | -4.9 | 4.2 | -2.1
Cc1c(C(=O)N2CCN(C(=O)c3ccco3)CC2)sc2nc(-c3ccc(F)cc3)cn12 | -0.1 | 2.8 | -2.4 | -0.6 | -2.0 | -5.5 | -3.3 | -0.7
CC1=C(C#N)c2nc(N)c(C#N)c(C)c2/C1=C\c1ccc(-c2ccccc2C(=O)O)o1 | . | 22.5* | -6.2 | 0.1 | -6.3 | 53.8 | . | .
O=C(NC(=S)Nc1cccc(C(F)(F)F)c1)c1csnn1 | 0.2 | 0.7 | 1.4 | 15.2 | 1.0 | 4.3 | -2.8 | -2.5
OC(COc1ccc(F)cc1)CN1CCN(CC(O)COc2ccc(F)cc2)CC1 (stereo unspecified) | 0.8 | 2.9 | 4.1 | 17.5 | 0.2 | -0.7 | -3.5 | -2.6
Cc1cc(C(=O)OCC(N)=O)c(C)n1-c1ccccc1 | -0.6 | 0.8 | -0.7 | -1.9 | 4.4 | -3.2 | 3.9 | -3.6
CC(C)Cc1nc2ccccc2n1CCc1ccccc1 | 0.0 | -0.1 | -5.8 | 7.9 | . | -11.7 | 5.7 | -3.8
O=C(/C(=C/c1cccnc1)n1ccnc1)c1ccc(Cl)cc1Cl | -0.2 | 7.0 | 9.3 | 43.7 | -0.3 | ? | 4.5 | -4.9

Three compounds already listed, sorted by their value in RanGTP-Imp inh, ascending:
Molecule | RanGTP-Imp inh
CC1=C(C#N)c2nc(N)c(C#N)c(C)c2/C1=C\c1ccc(-c2ccccc2C(=O)O)o1 | -6.3
CCOC(=O)c1ccc(NC(=S)NNC(=O)C2(C)CC2(Cl)Cl)cc1 (stereo unspecified) | -2.8
Cc1c(C(=O)N2CCN(C(=O)c3ccco3)CC2)sc2nc(-c3ccc(F)cc3)cn12 | -2.0
